Rango-impB inh – prevents formation of the Rango-importin beta complex | Q14974 | Rango CFP/YFP FRET sensor + importin beta, 45 min | Potency, µM (series often up to 92.2 µM), without a hit: at the top dose inhibition of complex formation | hit rate 0.031% among 340,000; active = rising FRET ratio curve, often small or poorly fitted; inconclusive = mostly compound fluorescence or quenching in the first reads; inactive = flat curves in all reads;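 also: potency is read from the fitted curve at half-maximal effect; 0% = DMSO wells and 100% = buffer wells lacking importin beta; nearly all actives have a fitted effect of over 15% in size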
Target sequence (Q14974 whole entry, looked up): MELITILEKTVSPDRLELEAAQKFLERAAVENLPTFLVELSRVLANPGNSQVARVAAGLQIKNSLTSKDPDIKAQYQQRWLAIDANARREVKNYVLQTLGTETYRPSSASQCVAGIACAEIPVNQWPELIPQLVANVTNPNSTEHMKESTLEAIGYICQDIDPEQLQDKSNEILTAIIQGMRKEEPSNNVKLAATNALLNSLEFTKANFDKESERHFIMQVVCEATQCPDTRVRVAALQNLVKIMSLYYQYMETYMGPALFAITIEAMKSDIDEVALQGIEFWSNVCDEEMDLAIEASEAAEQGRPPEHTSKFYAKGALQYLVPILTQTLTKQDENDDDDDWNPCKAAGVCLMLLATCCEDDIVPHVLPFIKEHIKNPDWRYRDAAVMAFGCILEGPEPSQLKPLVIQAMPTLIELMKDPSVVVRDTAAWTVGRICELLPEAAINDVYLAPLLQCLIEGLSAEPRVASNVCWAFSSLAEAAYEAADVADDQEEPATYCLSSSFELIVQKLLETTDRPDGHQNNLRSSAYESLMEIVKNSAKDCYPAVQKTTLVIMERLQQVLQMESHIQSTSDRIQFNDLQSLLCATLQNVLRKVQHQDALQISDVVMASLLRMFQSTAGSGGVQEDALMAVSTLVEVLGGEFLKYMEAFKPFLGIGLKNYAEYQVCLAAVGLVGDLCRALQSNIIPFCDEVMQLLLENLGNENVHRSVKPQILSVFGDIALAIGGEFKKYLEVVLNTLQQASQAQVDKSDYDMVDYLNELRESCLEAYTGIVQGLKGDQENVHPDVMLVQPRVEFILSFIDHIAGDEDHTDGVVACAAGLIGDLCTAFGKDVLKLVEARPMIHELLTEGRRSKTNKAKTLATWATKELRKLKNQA
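Inhibition scored from the CFP 486 nm/YFP 530 nm FRET ratio 45 min after adding 0.125 microM importin beta to 50 nM Rango biosensor preincubated 5 min with compound (room temperature, PBS with DTT, Tween-20, BSA). No-importin wells as positive control.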
Rango dissoc inh – inhibitors of RanGTP-induced Rango-importin beta complex dissociation; O95149+P62826; hit rate 0.071% among 340,000; Potency, µM (titrated, usually from 46.1 µM), inactives show at the top dose activity change, negative = inhibition; AID 540253; Biochemical FRET Rango-importin beta, RanGTP-induced dissociation; active means falling FRET ratio curve, often poorly fitted, with flat reads before Ran was added; inconclusive means other falling curves, or compound fluorescence or quenching; inactive means flat or rising ratio curve;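 also: potency is read from the fitted curve at half-maximal effect; % of control where 0% means no effect; nearly all actives have a fitted effect of over 45% in size; -100% = wells without RanGTP and RCC1; the record marks most hits as doubtful in a second field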
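Compounds preincubate 5 min with complex of recombinant Rango and importin beta in PBS with 1 mM DTT. Ran (0.6 uM) loaded with 2 mM GTP plus 0.2 uM RCC1 starts dissociation; FRET is recorded 45 min later.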
GLA inh pH 4.5 – alpha-galactosidase A (human) inhibition, pH 4.5; activity change, negative = inhibition, % at 105 µM; purified enzyme, 4-MU-alpha-Gal fluorescence, pH 4.5; P06280; 230,000 tested, under 10 active; AID 1467; inconclusive = small, poorly fitted or top-dose-only inhibition, or a rising curve; inactive = flat fitted curve, though single readings scatter; no compound was filed as active;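 also: 0% = full activity with enzyme and -100% = basal without enzyme; dose as in the result columns while the protocol names 77 µM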
miR-21 reporter – raises the signal of a miR-21 reporter | HeLa miR-21 FLuc reporter, luciferase, 48 h | Potency, µM (series often up to 38.3 µM), for the others: at the top dose reporter change, positive = more light | 340,000 tested, under 10 active; active = well fitted rising curve with a large enough effect; inconclusive = small, poorly fitted or top-dose-only effect; inactive = no such curve, though single readings can be large or run the other way;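 also: % of control where 0% means no effect; miR-21 action dims this reporter so a rising signal means less miR-21 action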
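HeLa miR-21-FLuc reporter line, endogenous miR-21; 2000 cells/well in DMEM/10% FBS; compound titration up to ~40uM final, 48 h, 37 degree Celsius; luciferase detection reagent, 15 min lysis, CCD luminescence.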
The depositor's hits bear a star; ? = inconclusive; · = not tested or not shown. This is a subset (hit frequency here may not be typical).

SMILES | Rango-impB inh | Rango dissoc inh | GLA inh pH 4.5 | miR-21 reporter
O=C(COC(=O)C12CC3CC(CC(C3)C1)C2)Nc1nc2c(F)c(F)c(F)cc2s1 | -0.2% | 7% | -2 | -3%
COc1ccc(COCC(O)CN2CCC(C(N)=O)CC2)cc1OC (stereo not given) | 5.3% | 19% | 10 | -1%
Cc1cc(=O)oc2cc(OCC(=O)N3c4ccccc4CC3C)ccc12 (stereo not given) | -4.4% | 0% | 1 | 23%
CCCCc1ccc(NC(=S)NCc2ccc(OC)cc2)cc1 | -1.1% | 1% | -7 | -16%
CCOC(=O)c1ccc(N2C(=O)c3n[nH]c(C)c3C2c2ccc(OC)c(OC)c2)cc1 (stereo not given) | -6.8% | -4% | 2 | -9%
COc1ccc(CCN(C)C(=O)c2cccc(S(=O)(=O)N3CCN(c4ccc(F)cc4)CC3)c2)cc1OC | -0.1% | -14% | · | ·
CCc1ccc(NC(=O)CCc2nc3sc4c(c3c(=O)[nH]2)CCCC4)cc1 | -4.4% | -2% | · | ·
CCCn1c(CN2CCN(C(=O)OCC)CC2)nc2cc(NC(=O)CC)ccc21 | 0.7% | 14% | · | 20%
CC(C)COc1ccc2[nH]c3c(c2c1)CCCC3=O | -2.5% | 7% | 2 | -19%
COc1ccc(/C(C)=N/NC(=S)NCc2ccco2)cc1 | 0.6% | 13% | 1 | -22%
COc1ccc(S(=O)(=O)NCc2ccccc2)cc1 | 0.1% | 22% | 3 | 0%
O=C(c1cc(-c2cccs2)nn1-c1ccccc1)N1CCN(S(=O)(=O)c2ccccc2)CC1 | 1.1% | 1% | · | ·
O=C(Nc1nnc2n1CCS2)c1ccco1 | -2.0% | -3% | · | 9%
COc1ccc(-c2nnc(SCC(=O)N/N=C/c3ccccc3C(=O)O)n2-c2ccc(Cl)cc2)cc1 | -1.6% | 0% | 2 | 6%
Cc1noc(C)c1NC(=O)N(C)C[C@H]1Oc2ccc(NC(=O)Cc3ccccc3)cc2C(=O)N([C@H](C)CO)C[C@@H]1C | 1.0% | 1% | · | ·
Cc1ccc2c(c1)C(c1ccccc1)N(C(=O)c1ccccc1[N+](=O)[O-])CC(=O)N2 (stereo not given) | 0.9% | 14% | · | 16%
COc1cc(OC)cc(C(=O)N[C@H](C(=O)OCC(=O)Nc2ccc(OC)c(OC)c2)C(C)C)c1 | 0.3% | 2% | -9 | 0%
Cc1ccc(C(=O)NNC(=O)C2CCN(c3nccc(C)n3)CC2)cc1 | -0.4% | -6% | -4 | 1%
CCC12CN3CC(CC)(CN(C1)C3c1ccc(OC(C)C)cc1)C2=O (stereo not given) | -0.6% | 2% | -6 | 0%
Cc1ccc2oc(-c3ccc(NC(=O)c4ccncc4)cc3O)nc2c1 | -0.5% | -8% | 3 | -37%
O=C(Cc1ccc(Cl)cc1)Nc1ccc(SC(F)F)cc1 | -0.2% | 2% | -8 | -37%
O=C1CC(C(=O)O)c2ccccc2N1 (stereo not given) | 5.9% | ? | 3 | -2%
Cc1ccc(C2CC(c3ccc(C)cc3)n3nc(N)nc3N2)cc1 (stereo not given) | 3.1% | 0% | 1 | -9%
COc1cccc(C(C(=O)NC2CCCC2)N(CC2CCCO2)C(=O)Cc2cccs2)c1 (stereo not given) | 1.9% | 16% | -12 | 0%
Cc1nnsc1C(=O)N/N=C/c1cccc(C(F)(F)F)c1 | -1.4% | -18% | 1 | -1%
CC(=O)CCc1c(C)nc2ccc(C(=O)O)cc2c1Cl | 0.2% | 7% | 9 | 2%
COc1ccc(C(=O)NCC(O)CN2CCOCC2)cc1[N+](=O)[O-] (stereo not given) | -2.4% | 10% | · | -2%
COc1ccc(C(=O)Nc2cccc(NC(=O)c3ccc(OC)c(OC)c3)n2)cc1OC | -0.3% | 0% | · | 13%
Cc1ccccc1-c1nc(CN2CCC(C(=O)NCCCN3CCOCC3)CC2)c(C)o1 | -2.3% | -3% | 1 | -5%
COc1cc(C2N(c3ccc(Cl)cc3)C(=O)C3CCCN32)cc(OC)c1OC (stereo not given) | 3.1% | 22% | -1 | -9%
COc1ccccc1N1CCN(C(=O)c2cc(C3CC3)on2)CC1 | 0.8% | 5% | 4 | -15%
O=C(C1CCCO1)N1CCN(c2c3c(nc4cc(-c5ccc(F)cc5)nn24)CCC3)CC1 (stereo not given) | -1.5% | 9% | 0 | -17%
CC(=O)c1ccc(N2CCN(C(=S)Nc3ccccc3)CC2)cc1 | -4.4% | -3% | 3 | 8%
O=C(N/N=C\c1ccccc1)c1ccccc1-n1cccc1 | 0.9% | 26% | 3 | -4%
Cc1[nH]c2ccc(C(=O)OCC(=O)Nc3cccc(S(N)(=O)=O)c3)cc2c1C | -0.3% | -18% | · | ·
O=C(Oc1ccc(-c2cnc3ccccc3n2)cc1)c1ccco1 | 1.2% | -3% | 2 | -33%
Cc1cc(C)n(-c2nc3c(c(=O)[nH]c(=O)n3C)n2Cc2ccc(F)cc2)n1 | 0.5% | 1% | 2 | -9%
O=C(N=Nc1c(O)n(C2OC(=O)c3ccccc32)c2ccccc12)c1ccco1 (stereo not given) | · | · | 2 | -26%
C/C(=N\OCC(=O)O)c1ccc(Cl)cc1 | -2.5% | 0% | -12 | -6%
CCCN(CCC)C(=O)C1CC(=O)OC12CCOC(C)(C)C2 (stereo not given) | -4.5% | 12% | 12 | -2%
O=C(O)CCc1ccc(-c2ccccc2)n1NC(=O)c1ccco1 | -1.0% | 7% | -7 | -11%
CCc1ccc2nc(NC(=O)CN3C(=O)NC4(CCCC4)C3=O)sc2c1 | ? | -1% | · | ·
COc1cc([N+](=O)[O-])cc2sc(NC(=O)C(C)(C)C)nc12 | 0.1% | -19% | -2 | 5%
CCCCn1c(N)c(N(CC(C)C)C(=O)CN(C)S(=O)(=O)c2ccc(C)cc2)c(=O)[nH]c1=O | 0.7% | 11% | · | ·
CNc1nc(-c2c(C)[nH]c3ccc(OC)cc23)cs1 | -2.3% | -3% | · | -3%
COCCCNC(=S)N1CCN(c2nc(-c3cccc(OC)c3)cs2)CC1 | -0.4% | -3% | · | 8%
COc1cccc(CNC(=O)CN(C)S(=O)(=O)c2cccc3cccnc23)c1 | 0.0% | 0% | 4 | 2%
COc1cccc(-c2nnc3sc(-c4ccc(Cl)cc4)nn23)c1 | · | · | 6 | -1%
CCCCn1c(N)c(N(CC(C)C)C(=O)c2ccc(OCC3CCCO3)cc2)c(=O)[nH]c1=O (stereo not given) | ? | -1% | · | ·
COc1cc(/C=C2/SC(=S)N(CC3CCCO3)C2=O)ccc1O (stereo not given) | ? | ? | -7 | -56%
Cc1cc2c3c(c1C)C1(C(=O)N3C(C)(C)CC2C)C(C#N)=C(N)Oc2cc(O)ccc21 (stereo not given) | 2.6% | -9% | 1 | 19%
CCOc1cccc(NC(=O)Cc2cccs2)c1 | -0.1% | 18% | 9 | -27%
O=C(COC(=O)/C=C/c1cccc(C(F)(F)F)c1)Nc1ccc(Cl)cn1 | 4.9% | 1% | · | ·
Cc1cc(N2CCCC2)ccc1NC(=O)COc1cccc(C(F)(F)F)c1 | 1.4% | -5% | · | 14%
CC(C)(C)OC(=O)N1CCCC(C(=O)Nc2cccc(C(=O)NCc3ccccc3)c2)C1 (stereo not given) | -0.4% | 3% | · | ·
N#C/C(=C(/O)Cc1cccc2ccccc12)c1nc2ccccc2s1 | -0.9% | 0% | -1 | 0%
C=CCNCc1cc(=O)n2c(-c3ccccc3)csc2n1 | 3.6% | -8% | · | -5%
Cc1ccc2c(c1)N(C(=O)CCC(=O)N1CCN(c3ccccn3)CC1)CC(C)O2 (stereo not given) | -2.8% | -11% | · | 6%
CN(CC(=O)Nc1cccc(F)c1)C(=O)c1cc(-c2cccs2)nn1-c1ccccc1 | 6.6% | -9% | · | ·
Cc1ccc(-c2csc(N(Cc3ccccc3)C(=O)COc3ccccc3)n2)cc1 | -1.9% | -9% | 4 | -4%

(further entries)
SMILES | Rango-impB inh | Rango dissoc inh | GLA inh pH 4.5 | miR-21 reporter
CC1CCCN(S(=O)(=O)c2cnc[nH]2)C1 (stereo not given) | 0.9% | -9% | · | -3%
O=C(CCCNS(=O)(=O)c1ccc(Br)cc1)N1CC[C@@]2(O)CCCC[C@H]2C1 | -2.4% | -14% | 0 | -1%
CCS(=O)(=O)c1nc(NC(C)=O)n[nH]1 | -4.6% | -15% | 5 | 0%
CC(C)(C)C1C/C(=C/c2ccco2)C(=O)/C(=C/c2ccco2)C1 (stereo not given) | ? | ? | 4 | ?
O=[N+]([O-])c1cccc(-c2nc(-c3ccccn3)no2)c1 | -2.5% | -23% | 0 | -50%
C/C(Nc1ccc(F)cc1)=C(/C#N)C(N)=O | 6.3% | 2% | 3 | -4%
c1ccc(Cn2nnnc2C(c2ccccn2)N2CCN(c3ccccc3)CC2)cc1 (stereo not given) | 8.4% | 6% | -4 | 1%
O=[N+]([O-])c1ccc(F)c(N=Cc2ccc(Br)s2)c1 | -2.0% | 24% | 0 | 1%
Cc1cc(CNC(=O)c2cc(COc3ccc(F)c(F)c3)on2)nn1C | -0.1% | -15% | · | -47%
Cc1ccc(CNc2nc3ccccc3n2C)cc1 | -4.3% | 1% | · | -10%
O=C(COC(=O)CCSc1ccccc1)Nc1cc(F)ccc1F | -0.2% | -10% | -1 | 2%
CCN(CC)CC1(O)CCN(C(=O)c2ccc(Cl)c(Cl)c2)CC1 | ? | ? | -3 | -1%

For reference, part of the list above.
SMILES | Rango-impB inh | Rango dissoc inh | GLA inh pH 4.5 | miR-21 reporter
O=C(COC(=O)/C=C/c1cccc(C(F)(F)F)c1)Nc1ccc(Cl)cn1 | 4.9% | 1% | · | ·
Cc1cc(N2CCCC2)ccc1NC(=O)COc1cccc(C(F)(F)F)c1 | 1.4% | -5% | · | 14%
CC(C)(C)OC(=O)N1CCCC(C(=O)Nc2cccc(C(=O)NCc3ccccc3)c2)C1 (stereo not given) | -0.4% | 3% | · | ·
N#C/C(=C(/O)Cc1cccc2ccccc12)c1nc2ccccc2s1 | -0.9% | 0% | -1 | 0%
C=CCNCc1cc(=O)n2c(-c3ccccc3)csc2n1 | 3.6% | -8% | · | -5%
Cc1ccc2c(c1)N(C(=O)CCC(=O)N1CCN(c3ccccn3)CC1)CC(C)O2 (stereo not given) | -2.8% | -11% | · | 6%
CN(CC(=O)Nc1cccc(F)c1)C(=O)c1cc(-c2cccs2)nn1-c1ccccc1 | 6.6% | -9% | · | ·
Cc1ccc(-c2csc(N(Cc3ccccc3)C(=O)COc3ccccc3)n2)cc1 | -1.9% | -9% | 4 | -4%
CC1CCCN(S(=O)(=O)c2cnc[nH]2)C1 (stereo not given) | 0.9% | -9% | · | -3%
O=C(CCCNS(=O)(=O)c1ccc(Br)cc1)N1CC[C@@]2(O)CCCC[C@H]2C1 | -2.4% | -14% | 0 | -1%
CCS(=O)(=O)c1nc(NC(C)=O)n[nH]1 | -4.6% | -15% | 5 | 0%
CC(C)(C)C1C/C(=C/c2ccco2)C(=O)/C(=C/c2ccco2)C1 (stereo not given) | ? | ? | 4 | ?
O=[N+]([O-])c1cccc(-c2nc(-c3ccccn3)no2)c1 | -2.5% | -23% | 0 | -50%
C/C(Nc1ccc(F)cc1)=C(/C#N)C(N)=O | 6.3% | 2% | 3 | -4%
c1ccc(Cn2nnnc2C(c2ccccn2)N2CCN(c3ccccc3)CC2)cc1 (stereo not given) | 8.4% | 6% | -4 | 1%
O=[N+]([O-])c1ccc(F)c(N=Cc2ccc(Br)s2)c1 | -2.0% | 24% | 0 | 1%
Cc1cc(CNC(=O)c2cc(COc3ccc(F)c(F)c3)on2)nn1C | -0.1% | -15% | · | -47%
Cc1ccc(CNc2nc3ccccc3n2C)cc1 | -4.3% | 1% | · | -10%
O=C(COC(=O)CCSc1ccccc1)Nc1cc(F)ccc1F | -0.2% | -10% | -1 | 2%
CCN(CC)CC1(O)CCN(C(=O)c2ccc(Cl)c(Cl)c2)CC1 | ? | ? | -3 | -1%

Compound activity from PubChem BioAssay.
